Compound activity (PubChem BioAssay)
HPGD inh = qHTS Assay for Inhibitors of HPGD (15-Hydroxyprostaglandin Dehydrogenase). purified HPGD, NADH fluorescence kinetic, PGE2 substrate. 15-hydroxyprostaglandin dehydrogenase [NAD(+)] (Homo sapiens), P15428. hit rate 4.3% among 150,000. Potency, µM, for inactives: at the highest dose activity change, negative = inhibition, usual class: inhibitors; active = well fitted inhibition curve with a large enough effect (not every such curve was filed as active); inconclusive = small, poorly fitted or top-dose-only effect, or another doubt; inactive = no such curve, though single readings can be large or run the other way;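 note: top concentration of the series not given in the record; plate controls included wells without enzyme; inactives centre near -10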
Target sequence (P15428 whole entry, looked up): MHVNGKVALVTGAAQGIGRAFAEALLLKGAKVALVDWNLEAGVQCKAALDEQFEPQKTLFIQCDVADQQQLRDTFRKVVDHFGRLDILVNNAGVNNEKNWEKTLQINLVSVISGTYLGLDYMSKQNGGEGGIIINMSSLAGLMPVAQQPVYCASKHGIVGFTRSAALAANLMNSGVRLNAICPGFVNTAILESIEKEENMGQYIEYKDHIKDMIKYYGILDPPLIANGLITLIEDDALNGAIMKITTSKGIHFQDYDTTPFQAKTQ
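20 nM HPGD preincubated 15 min at room temperature with compound in 50 mM Tris-HCl pH 8, 0.01% Tween 20. Started with 1 mM NAD+ and 30 uM prostaglandin E2; NADH fluorescence (360/450 nm) read 5 times over 30-s intervals, last minus first.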
* marks the source's active call; other numbers are inactive results; ? = inconclusive; & = joins results of further samples. % is set by controls: 0 for no effect and ±100 for the full control effect; potency is the fitted concentration of half-maximal effect. A portion of the library; rates above refer to the full screens.

SMILES	HPGD inh
CCOc1ccccc1N(CC(=O)NC1CCCCC1)S(C)(=O)=O	-8.2%
O=[N+]([O-])c1ccc(-c2ccc(/C=N/c3c(-c4ccco4)nc4ccccn34)o2)c(Cl)c1	-3.0%
O=C(Cc1ccccc1)Nc1nc(-c2cccs2)cs1	-16.6%
CCN=C1SC(C(=O)NCCc2ccccc2)CC(=O)N1CC (configuration not stated)	-12.2%
Cc1ccc(NC(=O)c2c([N+](=O)[O-])c(C(C)(C)C)nn2C)c(C)c1	-2.8%
CCn1cc(NC(=O)Nc2ccc(OC)c(OC)c2)c(C(N)=O)n1	-2.8%
CCCCN(C)CCn1c(=S)[nH]c2ncccc2c1=O	-4.1%
Cc1[nH]nc2ncc(C(=O)c3cc(Cl)cc(Cl)c3O)cc12	-20.5%
CCOC(=O)Cn1nc(C)n(-c2ccc(C(C)(C)C)cc2)c1=O	0.4%
Cc1ccc(C(=O)CSc2nnc(Cn3nnc4ccccc43)n2C)cc1	-4.0%
Cc1nnc2sc(SCc3ccccc3)nn2c1=O	-8.3%
Cc1cc2occ(CC(=O)NC3=NCCS3)c2cc1C(C)C	-2.8%
CCC(C(=O)NC(C)(C)C)N(C(=O)Cn1nnc(-c2ccccc2F)n1)c1cccc2c1CCCC2 (configuration not stated)	-5.1%
COC(=O)c1cc(Br)ccc1-c1ccc(/C=N/n2nnnc2N)o1	?
N#Cc1c(Nc2ccccc2)sc(C(=O)c2ccccc2)c1N	-29.2%
CCSc1nc2sc3c(c2c(=O)[nH]1)CC(C)(CC)OC3 (configuration not stated)	-5.7%
c1ccc(NCCSc2nc3ccccc3s2)cc1	-9.3%
CCOc1ccccc1N(CC)C(=O)Cn1ncc2c(=O)oc3ccccc3c21	-8.7%
O=C(N/N=C/c1ccc(N2CCOCC2)o1)c1cccc([N+](=O)[O-])c1	-27.3%
CCOc1cc(-c2noc(N)c2C#N)cc(OCC)c1OCC	-24.0%
O=C(Nc1ccc(Cl)cc1)Nc1nnc(CSCc2ccccc2)s1	-0.8%
Cc1cc(NC(=O)CN2CCN(c3ccc(O)cc3)CC2)no1	-11.0%
COc1c2ccoc2nc2c(OC)c(OC[C@H](O)C(C)(C)O)ccc12	?
COc1ccc2cc3[n+](cc2c1OC)CCc1cc2c(cc1-3)OCO2	-14.5%&-13.2%&-4.5%&-13.3%&-5.8%
COc1ccc(OC)c(NC(=O)C23CCC(C)(C(=O)C2)C3(C)C)c1 (configuration not stated)	-8.1%
(further entries)
SMILES	HPGD inh
COc1ccc(/C(O)=C2\C(=O)C(=O)N(CCN(C)C)C2c2cccc(OC)c2OC)cc1 (configuration not stated)	-12.0%
CCOC(=O)N1CCN(C(=O)C(NC(=O)c2ccc(CC)cc2)C(C)C)CC1 (configuration not stated)	-7.8%
O=C(O)COc1ccc(/C=C/c2ccc3cccc([N+](=O)[O-])c3n2)cc1	-23.5%
Cn1cc([N+](=O)[O-])c(C(=O)N(Cc2ccccc2)Cc2ccccc2)n1	-13.0%
CCOC(=O)c1c(C)[nH]c(C(=O)COC(=O)CSC)c1C	-6.5%
O=C(CC(O)(c1ccccc1)C(F)(F)C(F)F)c1cccs1 (configuration not stated)	-9.3%
CCn1c(SCC(=O)Nc2cccc(F)c2)nc2c(c1=O)SC(C)C2 (configuration not stated)	-21.8%
CCCn1nnnc1SCC(=O)NNC(=O)C1CCCCC1	1.8%
CN(C(=S)NC(=O)/C=C/c1ccc(F)cc1)C1CCCCC1	-27.3%
c1ccc(N(c2ccccc2)c2nc(N3CCOCC3)nc(N3CCOCC3)n2)cc1	-1.1%
Nc1ncc(Br)cc1S(=O)(=O)NCCC(=O)N1CCN(c2ccccn2)CC1	-13.0%
Cn1nc(OC(=O)Nc2ccccc2)cc1C(F)(F)F	-8.0%
COc1ccc(Nc2nc(N)nc(CSc3nnc(N)s3)n2)cc1	-11.1%
COc1cc(Cl)c(C)cc1NC(=O)CSc1ccccc1	-11.0%
Cc1nc2sc(C(c3cccc(F)c3)N3CCCC(C)C3)c(O)n2n1 (configuration not stated)	-2.3%
CC(C)C[C@H](NC(=O)[C@@H]1O[C@H]1C(=O)O)C(=O)NCCCCN=C(N)N	-2.8%
C=CCn1c(C)cc(C(=O)CSc2nnc(NCc3ccccc3)s2)c1C	-29.9%
CCOC(=O)C1CCN(C(=O)COC(=O)c2ccc(Br)o2)CC1	-25.7%
COc1cccc(C(C)NC(=O)Nc2cccc(C(F)(F)F)c2)c1 (configuration not stated)	-21.5%
Cc1c(C(=O)N2CCOCC2)sc2nc(-c3ccccc3)cn12	-9.5%
CCOC(=O)c1c(C)noc1CP(=O)(c1ccccc1)c1ccccc1	-4.4%
CCCCCCN(C(=O)CCCCCN1C(=O)NC(c2ccc(-c3ccccc3)cc2)C(C(=O)OCc2ccccc2)=C1C)C(C(=O)NCCCC)c1ccccc1 (configuration not stated)	-12.7%
Cc1cc(C(=O)NCCc2ccc(S(=O)(=O)NC(=O)NN3CCCCCC3)cc2)no1	-2.1%
COC(=O)c1cccc(CSc2nnc(C)s2)c1	-14.7%
CC(C)OC(=O)c1cc2c(OC[C@@H](O)CNC(C)(C)C)cccc2[nH]1	-26.1%
(listing goes on)
SMILES	HPGD inh
Cc1ccnn1CCSCC(=O)O	-5.8%
CC(C)c1cc(CN2CCN(CCC#N)CC2)cc(C(C)C)c1O	-2.7%
CS(=O)(=O)Nc1ccc(C(=O)N2CCCC2)cc1	20µM*
CC(C)NS(=O)(=O)c1ccc(CCC(=O)Nc2cc(Cl)ccc2Oc2ccccc2)cc1	-12.4%
COc1ccc(CCN(C)CCC(=O)Nc2c(C)cc(C)cc2C)cc1OC	-16.4%
COc1cc([C@@H]2c3cc4c(cc3[C@@H](O[C@@H]3O[C@H]5CO[C@@H](C)O[C@@H]5[C@@H](O)[C@H]3O)[C@@H]3COC(=O)[C@@H]23)OCO4)cc(OC)c1O	-10.4%
Cc1ccc(C2/C(=C(\O)c3cnn(-c4ccccc4)c3C)C(=O)C(=O)N2CCN(C)C)o1 (configuration not stated)	-19.7%
COc1cc(/C=C/C(=O)OCC(=O)Nc2ccc3c(c2)OCCO3)ccc1OCC#N	?
O=P(O)(CCP(=O)(O)c1ccccc1)c1ccccc1	-3.9%
COc1ccc(C(=O)Nc2c3c(nn2-c2cccc(Cl)c2)CS(=O)C3)cc1 (configuration not stated)	9.4%
COc1ccc(CN(C2CCCCC2C)S(=O)(=O)c2ccc(S(=O)(=O)N(C)C)cc2)cc1OC (configuration not stated)	-12.7%
Cc1ccc2[nH]c3c(=O)n(CCC4=CCCCC4)cnc3c2c1	-17.1%
C=CCNC(=O)c1ccc(Cn2c(=S)[nH]c3cc4c(cc3c2=O)OCO4)cc1	-23.4%
O=Cc1c2[nH]c3ccccc3c2cc2[nH]c3ccccc3c12	-28.3%
Cc1nc(-c2ccccn2)sc1C(=O)Nc1ccc(F)cc1	-20.1%
O=C(COC(=O)C1CCN(S(=O)(=O)c2cccc3cccnc23)CC1)c1ccccc1	-8.0%
CC(C)OC(=O)CCCNc1ccc([N+](=O)[O-])cc1[N+](=O)[O-]	-19.8%
CCOc1ccc(N2CC(C(=O)Nc3ccc(S(=O)(=O)N4CCOCC4)cc3)CC2=O)cc1 (configuration not stated)	-5.1%
CCOC(=O)c1cc(-c2ccco2)nc2c1c(C)nn2CCC#N	?
C=C(C)c1cccc(C(C)(C)NC(=O)Nc2ccc(C)cn2)c1	-4.4%
COCC(=O)Nc1ccc([N+](=O)[O-])cc1C	-9.8%
Cc1cc2ncn(/N=C/c3cccnc3)c2cc1C	-19.1%
Cc1ccc(NCN2C(=O)C3CC=CCC3C2=O)cc1 (configuration not stated)	-2.1%
CCOc1ccc(C(=O)NCC(=O)OCC(=O)N2CCCCC2)cc1	-2.6%
O=C(c1cccc(C(=O)N2CCN(c3ccccc3)CC2)c1)N1CCN(c2ccccc2)CC1	-3.2%

Part of the list above in order of number of heavy atoms, falling.
SMILES	HPGD inh
O=C(COC(=O)C1CCN(S(=O)(=O)c2cccc3cccnc23)CC1)c1ccccc1	-8.0%
O=Cc1c2[nH]c3ccccc3c2cc2[nH]c3ccccc3c12	-28.3%
COCC(=O)Nc1ccc([N+](=O)[O-])cc1C	-9.8%

(further entries)
SMILES	HPGD inh
CC1(C)C(OC(=O)CCC(=O)O)CC[C@]2(C)C1CC[C@@]1(C)C2C(=O)C=C2[C@@H]3C[C@@](C)(C(=O)O)CC[C@]3(C)CCC21C (some centres not stated)	-1.6%
O=C(Nc1ccc(Cn2cccn2)cc1)c1ccc(COc2ccc(Br)cc2)cc1	-5.3%
Cn1cccc1C(=O)N1CCC2(CCCN(C(=O)Nc3cccc(F)c3)C2)CC1	-5.1%
C1=CC2CC1CC2CN1CCN(c2ccccc2)CC1 (configuration not stated)	3.4%
COc1ccc(NC(=O)C2CCCO2)cc1OC (configuration not stated)	-15.5%
O=C(c1ccccc1)C1O[C@H]1c1ccccc1 (some centres not stated)	-8.5%
CC(=O)Nc1nc2ccccc2n1Cc1ccccc1	-1.3%
O=C(O)C(=O)/C=C(\O)c1ccc(Br)cc1	-7.0%
Cc1ccc(NC(=O)CC2SC3=NCCCN3C2=O)c(C)c1 (configuration not stated)	-12.1%
CC1(C)Cc2nc3sc(C(=O)NCCO)c(N)c3cc2CO1	-9.2%
C/C=C/Cn1c(SCc2ccc(Cl)cc2)nc2c1c(=O)[nH]c(=O)n2C	?
COc1cccc(C2/C(=C(\O)c3ccc4c(c3)OCO4)C(=O)C(=O)N2CCN(C)C)c1OC (configuration not stated)	-28.1%
Cc1cc(C)cc(Oc2nn[nH]n2)c1	-1.2%
CC(=O)NC(Cc1c[nH]c2ccccc12)C(=O)N1CCc2ccccc2C1 (configuration not stated)	0.7%
O=C(COC(=O)c1ccccc1NS(=O)(=O)c1ccc(Cl)cc1)NCc1ccccc1	?
O=C(NC(c1ccccc1)c1cc(Cl)c2cccnc2c1O)c1cccnc1 (configuration not stated)	-4.9%
COc1ccc(C(=O)N(Cc2ccco2)Cc2cccs2)c(O)c1	?
CCn1ccc(C(=O)Oc2ccc(Cl)cc2)n1	-10.9%
Cc1occc1-c1n[nH]c(=S)n1-c1ccccc1	?
CCOC(=O)c1cccc(N2C(=O)C3C(C(=O)NC4CC4)C4(C)C=CC3(O4)C2C(=O)NC(C)(C)C)c1 (configuration not stated)	-8.7%
COc1ccc(C(=O)Nc2nc(-c3cccs3)c(NC(C)=O)s2)cc1	?
Brc1ccc2c(c1)C(C1=NCCN1)c1ccccc1CS2 (configuration not stated)	3.9%
Cc1cc(=O)n2c(nc3ccccc32)[nH]1	?
C/C=C/c1ccc(OCCCCOc2c(OC)cccc2OC)c(OC)c1	?
O=c1nc(NCc2ccccc2Cl)cn[nH]1	-16.0%

In the list so far, seven contain a nitro group on carbon:
SMILES	HPGD inh
O=[N+]([O-])c1ccc(-c2ccc(/C=N/c3c(-c4ccco4)nc4ccccn34)o2)c(Cl)c1	-3.0%
Cc1ccc(NC(=O)c2c([N+](=O)[O-])c(C(C)(C)C)nn2C)c(C)c1	-2.8%
O=C(N/N=C/c1ccc(N2CCOCC2)o1)c1cccc([N+](=O)[O-])c1	-27.3%
O=C(O)COc1ccc(/C=C/c2ccc3cccc([N+](=O)[O-])c3n2)cc1	-23.5%
Cn1cc([N+](=O)[O-])c(C(=O)N(Cc2ccccc2)Cc2ccccc2)n1	-13.0%
CC(C)OC(=O)CCCNc1ccc([N+](=O)[O-])cc1[N+](=O)[O-]	-19.8%
COCC(=O)Nc1ccc([N+](=O)[O-])cc1C	-9.8%

New compounds follow
SMILES	HPGD inh
CCN1CCN(C(c2ccccc2)c2nnnn2Cc2ccccc2)CC1 (configuration not stated)	-13.1%
Cc1cc(C)c(C)c(S(=O)(=O)NCC(=O)Nc2sc3c(c2C(N)=O)CCCC3)c1C	-14.8%
CCc1ccc(Nc2cc(=O)n(C3CCCCC3)c(=O)[nH]2)cc1	2.1%
CC(C)c1ccccc1NC(=O)COc1ccc(C(=O)NCCc2ccccc2)cc1	-4.6%
CC(C)NC(=S)N/N=C/c1cc(Br)ccc1O	?
O=C(Nc1nc(-c2ccco2)c(-c2ccco2)s1)C1CC(=O)N(c2ccc3c(c2)OCCO3)C1 (configuration not stated)	?
O=C(CCc1ccccc1)NNC(=O)C12CC3CC(CC(C3)C1)C2	-5.6%
COc1cccc(-n2c(COc3ccccc3C)nnc2SCC(=O)O)c1	-25.4%
CCn1c(N2CCC(C)CC2)nc2c1c(=O)n(C)c(=O)n2C	1.8%
CCOC(=O)c1c(C)[nH]c(C(=O)CSc2nnnn2-c2ccc(C)cc2)c1C	-2.4%
CCCC(C)C(=O)Nc1cccc(NC(C)=O)c1 (configuration not stated)	-12.9%
CCN1CNC(=S)N(Cc2ccccc2)C1	-6.2%
CCOC(=O)c1sc2nc(NC(=O)C(C)(C)C)sc2c1C	?
Cc1cc(NC(=O)c2noc3c2CCCCC3)nn1Cc1ccc(Cl)cc1	-10.0%
CCOc1ccc(Oc2nc(NCC(C)C)nc(OC)n2)nn1	-2.5%
CC(NC(=O)c1ccccc1)c1nc2ccccc2n1Cc1ccc(C#N)cc1 (configuration not stated)	-1.4%
Cc1ccc(C(O)c2ccncc2)cc1 (configuration not stated)	-8.5%
COc1ccc(OC)c(NC(=O)C(CC(=O)O)NCc2ccco2)c1 (configuration not stated)	0.6%
CCC(C)(C(=O)NC1CCCCC1)N(CC1CCCO1)C(=O)c1ccccn1 (configuration not stated)	1.4%
COc1ccc(C(=O)CCNc2cccc(Cl)c2)cc1	-0.2%
CC(=O)Nc1c(C#N)c(C(C)(C)C)cn1C	0.1%
Cc1nc2cnc(N3CCNCC3)nc2n(-c2ccccc2)c1=O	?
O=S(=O)(Nc1ccc(-c2nnc(SCc3ccc(Cl)cc3)o2)cc1)c1ccccc1	-25.4%

2 entries from above, bar-delimited.
molecule | HPGD inh
CC(C)c1ccccc1NC(=O)COc1ccc(C(=O)NCCc2ccccc2)cc1 | -4.6%
CCN1CCN(C(c2ccccc2)c2nnnn2Cc2ccccc2)CC1 (configuration not stated) | -13.1%
